Ba CapD inh = Bacillus anthracis CapD inhibitors, primary screen, biochemical, fluorescence intensity; purified CapD enzyme, fluorescence intensity read-out; active compounds read low; some hits fall short of the stated cut; z-score (concentration not given with the values); hit rate 0.23% among 140,000;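 active = z-score under -4 in either of two replicates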;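 also: stock transfer was 100 nL into about 40 µL; score is relative to mean and spread of the plate; one replicate is shown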
AID504770 = growth inhibition of E. coli YBA685, primary screen, V. cholerae RctB inhibitors; E. coli YBA685 rctB-dependent plasmid, OD600 growth, 3 h; active compounds read low; z-score (no concentration beside the values); hit rate 0.27% among 130,000;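 active = z-score under -2 on both plates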;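 also: wells of about 30 µL received 100 nL stock; score is relative to mean and SD of the test wells; the first replicate is given; strong numbers were not always called active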
Active calls of the source: *; & = joins results of further samples. An excerpt (hit frequency here may not be typical).

Results for CC1(C)CC(=O)C2=C(C1)c1c(ccc3ccccc13)NC2c1ccc(OC(=O)c2cc(F)c(F)cc2Cl)cc1 (centres undefined) ?
Ba CapD inh: 4.1

Results for COc1ccc(Cl)cc1NC(=O)COC(C)=O ?
Ba CapD inh: -0.57; AID504770: -0.75

How did Clc1ccc(-c2csc(=Nc3cccnc3)n2C2CC2)cc1 do in these assays?
AID504770: 0.95

How did S=C(Nc1ccccc1Cl)SCCSC(=S)Nc1ccccc1Cl do in these assays?
Ba CapD inh: 0.18

How did O=C(CN1C(=O)S/C(=C\c2c(Cl)cccc2Cl)C1=O)Nc1cccnc1 do in these assays?
Ba CapD inh: 0.18

What do the screens show for `CCCOc1cccc(C(=O)Nc2nnn(C)n2)c1`?
Ba CapD inh: -0.45; AID504770: -1.1

How did O=C1CSC(=Nc2ccc(Cl)cc2)N1 do in these assays?
Ba CapD inh: 0.18; AID504770: -1.3&-1.1

How did CSc1nc(N)cc(=O)[nH]1 do in these assays?
AID504770: 0.5

How did COc1ccc(C2C(C#N)=C(N)N(c3ccc(Br)cc3)C3=C2C(=O)CCC3)cc1OC (centres undefined) do in these assays?
Ba CapD inh: -0.34

What do the screens show for `CN(C)C(=O)C(C)(C)Oc1cc(C(F)(F)F)n(C)n1`?
Ba CapD inh: -0.19; AID504770: -0.3

Next section; the last seven above are carried over.
How did S=C(Nc1ccccc1Cl)SCCSC(=S)Nc1ccccc1Cl do in these assays?
Ba CapD inh: 0.18

How did O=C(CN1C(=O)S/C(=C\c2c(Cl)cccc2Cl)C1=O)Nc1cccnc1 do in these assays?
Ba CapD inh: 0.18

What do the screens show for `CCCOc1cccc(C(=O)Nc2nnn(C)n2)c1`?
Ba CapD inh: -0.45; AID504770: -1.1

How did O=C1CSC(=Nc2ccc(Cl)cc2)N1 do in these assays?
Ba CapD inh: 0.18; AID504770: -1.3&-1.1

How did CSc1nc(N)cc(=O)[nH]1 do in these assays?
AID504770: 0.5

How did COc1ccc(C2C(C#N)=C(N)N(c3ccc(Br)cc3)C3=C2C(=O)CCC3)cc1OC (centres undefined) do in these assays?
Ba CapD inh: -0.34

What do the screens show for `CN(C)C(=O)C(C)(C)Oc1cc(C(F)(F)F)n(C)n1`?
Ba CapD inh: -0.19; AID504770: -0.3

How did CC(=O)Nc1ccc2c(c1)OCCOCCOCCOCCOCCO2 do in these assays?
Ba CapD inh: -0.45

What do the screens show for `C=CCOc1ccccc1N`?
AID504770: -1.1

Results for N#Cc1c(C(F)(F)F)cc(-c2cccs2)nc1SCC(=O)NCc1ccccc1 ?
Ba CapD inh: 12

Results for O=C(COC(=O)c1cccc(S(=O)(=O)N2CCCC2)c1)Nc1ccc2c(c1)OCCO2 ?
AID504770: -1.1

Results for N#CC1=C(N)Oc2c(ccc3ccccc23)C1c1ccsc1 (centres undefined) ?
Ba CapD inh: 0.67; AID504770: 0.5

Results for Cc1ccc(-c2nnc(-n3cnc4cc(C)c(C)cc43)c3ccccc23)cc1 ?
Ba CapD inh: -0.18; AID504770: -0.25

Results for O=C1CC2CCCC(C1)N2Cc1ccccc1 ?
Ba CapD inh: -0.39; AID504770: -0.15

What do the screens show for `COc1cccc(C(=O)N/N=C/c2cn(C)c3ccccc23)c1`?
Ba CapD inh: -0.2

Results for c1ccc(C2CCCSC2)cc1 (centres undefined) ?
Ba CapD inh: 0.32; AID504770: 1.9

How did O=C(Nc1ccc(C(F)(F)F)cc1)c1cc(=O)n(Cc2ccccc2)c(=O)[nH]1 do in these assays?
Ba CapD inh: 0.32

The last 3 compounds of the section above come first, to join the parts.
What do the screens show for `COc1cccc(C(=O)N/N=C/c2cn(C)c3ccccc23)c1`?
Ba CapD inh: -0.2

Results for c1ccc(C2CCCSC2)cc1 (centres undefined) ?
Ba CapD inh: 0.32; AID504770: 1.9

How did O=C(Nc1ccc(C(F)(F)F)cc1)c1cc(=O)n(Cc2ccccc2)c(=O)[nH]1 do in these assays?
Ba CapD inh: 0.32

Results for O=C(Nc1ccno1)NN1CCOCC1 ?
Ba CapD inh: 10; AID504770: -3.2

What do the screens show for `O=C(O)CC1Nc2ccccc2NC1=O` (centres undefined)?
Ba CapD inh: 29; AID504770: -1.6

How did O=C1NC(=S)N/C1=C/C=C/c1ccccc1 do in these assays?
Ba CapD inh: 0.1; AID504770: 1.1

Results for NS(=O)(=O)c1ccc(CNC(=O)/C=C/c2ccc3c(c2)OCO3)cc1 ?
Ba CapD inh: -0.76; AID504770: -1.1

How did CC(C)CCNc1cc(C(C)C)c(C#N)c2nc3ccccc3n12 do in these assays?
Ba CapD inh: 12; AID504770: -0.45

Results for Cc1csc(NC(=O)c2cccn(OCc3ccccc3)c2=O)n1 ?
Ba CapD inh: -0.5; AID504770: -0.25

Results for CCOC(=O)c1cnc2c(C)cc(C)cc2c1Nc1ccc(F)cc1 ?
Ba CapD inh: -0.35

What do the screens show for `Cc1ccc(NC(=O)c2cc(S(=O)(=O)N3CCN(c4cccc(Cl)c4)CC3)ccc2F)cc1F`?
Ba CapD inh: 1

Results for Cc1c(-c2ccccc2)nnn1-c1cc(Cl)cc(Cl)c1 ?
Ba CapD inh: -0.7

What do the screens show for `Cc1cc(C(=O)COC(=O)C(C)N=C2NS(=O)(=O)c3ccccc32)c(C)n1C1CC1` (centres undefined)?
AID504770: -0.7

How did COCCc1nnc(CCOC)n1N do in these assays?
Ba CapD inh: 0.58; AID504770: 0.05

Results for COc1ccc(CCN2C(=O)CC(C(=O)Nc3ccc(C(C)=O)cc3)SC2=Nc2ccc(F)cc2)cc1 (centres undefined) ?
Ba CapD inh: -0.13

How did CC(=O)N1CCC(N(C(=O)c2cccs2)c2ccc3c(c2)CCN3S(C)(=O)=O)CC1 do in these assays?
Ba CapD inh: -0.62

What do the screens show for `O=S(=O)(c1cc(Cl)c(Cl)s1)N1CCC(O)(c2ccccc2)CC1`?
Ba CapD inh: 0.33

What do the screens show for `CCCn1c(=O)c(C(=O)NC23CC4CC(CC(C4)C2)C3)c(O)c2ccccc21`?
Ba CapD inh: 71; AID504770: -1.1

How did O=C(/C=C(\O)c1ccccc1)C(=O)NCc1ccccc1 do in these assays?
Ba CapD inh: -1.5; AID504770: -0.65

How did CCOC(=O)C1CCC(CNCc2ccc(Cl)cc2)CC1 (centres undefined) do in these assays?
Ba CapD inh: 0.67; AID504770: -0.45

How did CCOc1cccc2cc(C(=O)Nc3ccc(F)cc3)c(=Nc3ccc(C(=O)O)cc3)oc12 do in these assays?
Ba CapD inh: 0.11

How did Cc1ccc2oc(=O)c(-c3nc4ccccc4s3)cc2c1 do in these assays?
Ba CapD inh: -1.4; AID504770: 3

How did COc1ccc(CC(=O)N2N=C(C(F)(F)F)CC2(O)C(C)(C)C)cc1 (centres undefined) do in these assays?
Ba CapD inh: 81; AID504770: -1

Results for Cc1ccccc1NC(=O)c1c(NC(=O)c2ccccc2Br)sc2c1CCCCC2 ?
Ba CapD inh: 5

How did Cc1ccc(NC(=O)CSc2nc3n[nH]c(C)c3c(=N)n2-c2ccc(Br)cc2)cc1 do in these assays?
Ba CapD inh: 1.7

Results for COc1cc(C2Nc3ccc(Br)cc3C(c3ccccc3)O2)cc(OC)c1OC (centres undefined) ?
Ba CapD inh: 0.48

What do the screens show for `C=CCSc1nnnn1-c1ccc(OC)cc1`?
AID504770: -0.25

What do the screens show for `CN1CCN(c2nc3c(c(=O)[nH]2)CCCC3)CC1`?
Ba CapD inh: -0.2; AID504770: -0.2

Results for CC1=C(C)CC(C(=O)N2CCN(Cc3c(F)cccc3Cl)CC2)C(C(=O)O)C1 (centres undefined) ?
Ba CapD inh: 0.71; AID504770: -0.6

Results for COCC(C)NC(=O)c1cc(OC)cc(OC)c1 (centres undefined) ?
Ba CapD inh: -0.81

Results for O=C(Nc1nc(-c2cccs2)cs1)c1cc(Cl)sc1Cl ?
Ba CapD inh: -0.05; AID504770: 1.1

How did CC(C)(CO)NC(=O)c1ccc2c(c1)C(=O)c1ccccc1-2 do in these assays?
Ba CapD inh: 0.21; AID504770: 0.5

How did CCCn1c(O)c(N=NC(=S)Nc2cccc(OC)c2)c2ccccc21 do in these assays?
Ba CapD inh: -3.6; AID504770: -0.1

How did O=C(Cc1n[nH]c(=O)c2ccccc12)N1CCCSc2ccccc21 do in these assays?
AID504770: 0

Results for O=C(O)CCC(=O)N1CCN(c2ccc(Nc3ccccc3)nn2)CC1 ?
Ba CapD inh: 0.08; AID504770: 0.75

What do the screens show for `CC(C)(C)c1cc(N)c(C#N)s1`?
Ba CapD inh: -0.59

How did COc1ccc(-c2noc(-c3cc4ccccc4o/c3=N\NS(=O)(=O)c3ccc(C)cc3)n2)cc1 do in these assays?
Ba CapD inh: 0.56; AID504770: 0.9

Results for CC(C)N(C(=O)COc1ccc2ccccc2c1)C(C)C ?
Ba CapD inh: 0.63; AID504770: -0.05

How did OC1CCCN(CC(O)COc2c(Cl)cccc2Cl)C1 (centres undefined) do in these assays?
AID504770: -0.5

What do the screens show for `N#Cc1ccc(CSC2=NCCCN2C2CCCCC2)cc1`?
Ba CapD inh: 0.29

What do the screens show for `CC(=O)Nc1ccc2[nH]c(C)cc(=O)c2c1`?
AID504770: -0.05

How did CC(=O)OCC(CCn1cnc2cnc(N)nc21)COC(C)=O do in these assays?
AID504770: -0.35

How did Cc1ccc2[nH]c(C)c(CCC(=O)O)c(=O)c2c1 do in these assays?
AID504770: 1.1

Results for Cc1cc2cc(CNC(=O)CCC3CCCC3)ccc2[nH]1 ?
Ba CapD inh: 0.27; AID504770: -0.5

How did N#C/C(=C\c1cnc[nH]1)S(=O)(=O)c1cccs1 do in these assays?
Ba CapD inh: -1.9; AID504770: -1.3

Results for O=C(CSc1nc2ccccc2c(=O)n1CCCN1CCCCC1)c1ccccc1 ?
Ba CapD inh: -0.69; AID504770: -0.6

Results for Cc1ccc(C)c2[nH]c(=O)c(CCNC(=O)c3ccc(S(=O)(=O)N(C)C)cc3)cc12 ?
AID504770: 0.25

Results for O=C(NCC1CCCO1)c1ccc(Br)cc1 (centres undefined) ?
AID504770: -1.1

What do the screens show for `CC(=O)N1c2ccc(S(=O)(=O)N3CCCC3C(=O)N3CCn4c3nc3ccccc34)cc2CC1C` (centres undefined)?
Ba CapD inh: -0.05; AID504770: -0.1

Results for Cn1cc(CC(=O)NCCCN2CCCC2)c2ccccc21 ?
Ba CapD inh: 0.28; AID504770: -1.7

What do the screens show for `CCn1c2ccccc2c2cc(CN3CCN(c4ccccn4)CC3)ccc21`?
Ba CapD inh: 4.1; AID504770: 1.1

Results for O=C1C(c2ccccc2)c2ccccc2N1Cc1ccccc1 (centres undefined) ?
Ba CapD inh: -0.09; AID504770: -0.2

Results for CCN(CC)CCN1C(=O)C(=O)/C(=C(/O)c2ccc3c(c2)CC(C)O3)C1c1ccc(F)cc1 (centres undefined) ?
Ba CapD inh: -0.61; AID504770: -0.65

Results for COc1ccc(C(=O)NNC(=O)c2ccc(F)cc2)cc1 ?
Ba CapD inh: -0.62

What do the screens show for `CN(C)c1ccc(C2C(C#N)=C(N)N(c3cccc([N+](=O)[O-])c3)C3=C2C(=O)CC(C)(C)C3)cc1` (centres undefined)?
Ba CapD inh: -0.42

What do the screens show for `CC(C)(C)C(=O)NC(=O)Nc1ncc(S(C)(=O)=O)c(-c2ccc(C(F)(F)F)cc2)n1`?
Ba CapD inh: -0.05

Results for Cc1ccc(C2Nc3ccccc3NC3=C2C(=O)CC(C)(C)C3)o1 (centres undefined) ?
Ba CapD inh: -1; AID504770: 1.1

How did CN(C(=O)c1ccc2c(=O)n3c(nc2c1)CCCCC3)c1cccc(Cl)c1 do in these assays?
Ba CapD inh: 0.25; AID504770: 0.25

Results for C[C@@H](C(=O)NC1=NCCS1)N1C(=O)C2CC=CCC2C1=O (some centres undefined) ?
AID504770: 0.45

What do the screens show for `CC(=O)Nc1ccc(S(=O)(=O)NN2C(=O)/C(=C/c3ccco3)N=C2c2ccccc2)cc1C(=O)O`?
Ba CapD inh: 0.55; AID504770: -0.1

What do the screens show for `Cc1ccc(C2OC3(C(=O)c4ccccc4C3=O)C3C(=O)N(c4ccccc4Cl)C(=O)C23)cc1` (centres undefined)?
Ba CapD inh: 1.2

What do the screens show for `O=C(CSc1n[nH]c(=O)n1C1CC1)c1ccc(N2CCOCC2)cc1`?
Ba CapD inh: -0.3; AID504770: 0.8

What do the screens show for `Cn1c(=O)c2c(ncn2Cc2ccccc2)n(C)c1=O`?
AID504770: -0.4

How did COc1ccc(/C=C2N=C(/C=C/c3cccc(Cl)c3Cl)OC\2=O)c(OC)c1OC do in these assays?
Ba CapD inh: -0.17

How did Cc1cc(C)c2c(=O)n(CC(=O)N3CCCCCC3)sc2n1 do in these assays?
Ba CapD inh: 0.6; AID504770: -1

Results for COc1ccc(N(/C=C2\Sc3ccccc3C2=O)C(=O)c2cccc(Cl)c2)cc1 ?
Ba CapD inh: 0.5

Results for O=C(CSc1ccc2nnc(-c3ccccc3)n2n1)N1CCCC1 ?
Ba CapD inh: 0.99; AID504770: -0.5

What do the screens show for `COC(=O)C1(C(=O)/C=C/c2ccc(Cl)cc2)CCCCC1`?
Ba CapD inh: -0.62

How did O=C1/C(=C/c2ccc[nH]2)Cc2ccccc21 do in these assays?
Ba CapD inh: -2.6; AID504770: 1.4

Results for CC(C)P(c1ccc(C#N)cc1)C(C)C ?
Ba CapD inh: 1.1; AID504770: 1.4

What do the screens show for `O=C(Nc1nc(-c2cccs2)c(-c2cccs2)s1)C1(c2ccccc2)CC1`?
AID504770: -0.55

How did CCOC(=O)c1cc(CC)sc1NC(=O)C(F)(F)F do in these assays?
Ba CapD inh: 0.6

What do the screens show for `COc1ccccc1OC(C)C(=O)N(Cc1ccc(Cl)cc1)Cc1ccco1` (centres undefined)?
Ba CapD inh: -0.32; AID504770: -0.05

Results for N#CC1=C(N)Oc2c(c(=O)oc3ccccc23)C1c1ccc(F)c(Br)c1 (centres undefined) ?
Ba CapD inh: 0.98

Results for N#C/C(=C\Nc1ccc(Oc2ccccc2)cc1)c1ccc(OCCCF)cc1 ?
Ba CapD inh: -0.28
